Source: PubChem BioAssay (National Center for Advancing Translational Sciences (NCATS))
Vaccinia mCherry: vaccinia inhibition (mCherry reporter); Vaccinia virus mCherry reporter infection, fluorescence; about a quarter of the inactives have no number; Potency, µM (titrated, usually from 36.5 µM), inactives show at the top dose activity change, negative = inhibition, usual class: inhibitors; actives 0.63% (n = 310,000); active = well fitted inhibition curve with a large enough effect; inconclusive = small, poorly fitted or top-dose-only effect; inactive = no such curve, though single readings can be large or run the other way; tested in A549 cells; note: nearly all actives have a fitted effect of over 35% in size; inactives centre near -10
Vaccinia Venus: inhibitors of vaccinia virus (Venus reporter); Vaccinia virus Venus reporter expression, fluorescence; Potency, µM (series often up to 36.5 µM), inactives show top-dose activity change, negative = inhibition, actives largely listed as inhibitors; actives 0.46% (n = 330,000); active means well fitted inhibition curve with a large enough effect; inconclusive means small, poorly fitted or top-dose-only effect; inactive means no such curve, though single readings can be large or run the other way; tested in A549 cells; note: nearly all actives have a fitted effect of over 30% in size; inactives centre near -10
* marks the source's active call; other numbers are inactive results; i = inactive; ? = inconclusive; · = no result given; & = joins results of further samples; [ ] = remark or other dose. % is set by controls: 0 for no effect and ±100 for the full control effect; potency is the fitted concentration of half-maximal effect.

entry	smiles	Vaccinia mCherry	Vaccinia Venus
1	CCCn1c2ccccc2c2cnn(CC(=O)OC)c(=O)c21	-12.5%	-10.5%
2	OCc1nc2ccc(Cl)cc2[nH]1	-14.1%	-14.4%&-12.8%
3	C[C@H]1CN([C@@H](C)CO)S(=O)(=O)c2ccc(/C=C/c3ccccc3)cc2O[C@H]1CN(C)C(=O)NC1CCCCC1	-9.8%	?
4	C/C(=N/NC(=O)c1ccc(-c2ccccc2)cc1)c1cccc(O)c1	?	-11.4%
5	COC(=O)N(C)C[C@H]1OCc2cnnn2CCCC(=O)N([C@@H](C)CO)C[C@H]1C	-11.4%	-7.0%
6	CC(OC(=O)C1CSC2(C)CCC(=O)N12)C(=O)Nc1cccc(C#N)c1 (centres undefined)	-9.2%	-7.1%
7	Cc1cccc(C(=O)Nc2cccc(S(=O)(=O)NCc3ccco3)c2)c1	-27.2%	-6.4%
8	C=C1C(=O)OC2CC1C(O)CC(C)=CCCC(C)=CC(O)CC2C (centres undefined)	?	11.2µM*
9	CCCNC(=O)CN1C(=O)c2c(c3ccccc3n2C)C1c1ccc(OC)cc1 (centres undefined)	-11.1%	-12.8%
10	Cc1cc(Nc2ccc(Cl)cc2)n(-c2cccc(Cl)c2)n1	-22.1%	-14.5%
11	Cc1c(Cl)cccc1-c1ccc(CNCCCSc2nnnn2C)o1	-2.6%	-5.7%
12	COc1ccc(S(=O)(=O)N2CCCN(CC(=O)Nc3ccc(OC)cc3OC)CC2)cc1	-0.8%	-0.8%
13	CCc1ccc(-c2nc(CN3CCCC(C(=O)O)C3)c(C)o2)cc1 (centres undefined)	i	-18.4%
14	CC(=O)N1CCCc2cc(S(=O)(=O)N3CCC(C(=O)Nc4ccc(C)cc4Cl)CC3)ccc21	2.2%	-4.0%
15	NC(N)=N/N=C/c1ccc(N(c2ccccc2)c2ccccc2)cc1	?	10µM*
16	COc1cc2c(cc1OC)-c1cc(Nc3ccc4c(c3)OCCO4)nc(=O)n1CC2	-23.5%	-13.2%
17	CC1CC(C)CN(S(=O)(=O)CCNC(=O)c2ccc3c(c2)OCO3)C1 (centres undefined)	i	-7.4%
18	CCCOc1ccc(CN(C(=O)c2cccc(OC)c2)C2CCS(=O)(=O)C2)cc1 (centres undefined)	-2.3%	-18.2%
19	CCc1cccc(NC(=O)CSc2nc(C)cs2)c1	-5.6%	-7.1%
20	Cc1cc(/C=C2/NC(=O)N(Cc3ccccc3F)C2=O)c(C)n1C(C)C	?	-5.7%

Looked up above:
Vaccinia mCherry, no. 3 : -9.8%
Vaccinia Venus, no. 4 : -11.4%

Quoted at random: 6 entries already listed
entry	smiles	Vaccinia mCherry	Vaccinia Venus
6	CC(OC(=O)C1CSC2(C)CCC(=O)N12)C(=O)Nc1cccc(C#N)c1 (centres undefined)	-9.2%	-7.1%
16	COc1cc2c(cc1OC)-c1cc(Nc3ccc4c(c3)OCCO4)nc(=O)n1CC2	-23.5%	-13.2%
2	OCc1nc2ccc(Cl)cc2[nH]1	-14.1%	-14.4%&-12.8%
1	CCCn1c2ccccc2c2cnn(CC(=O)OC)c(=O)c21	-12.5%	-10.5%
7	Cc1cccc(C(=O)Nc2cccc(S(=O)(=O)NCc3ccco3)c2)c1	-27.2%	-6.4%
5	COC(=O)N(C)C[C@H]1OCc2cnnn2CCCC(=O)N([C@@H](C)CO)C[C@H]1C	-11.4%	-7.0%

(listing goes on)
entry	smiles	Vaccinia mCherry	Vaccinia Venus
21	CCOC(=O)c1ccc(N2C(=O)c3n[nH]c(-c4ccco4)c3C2c2ccc(O)c(OC)c2)cc1 (centres undefined)	-5.1%	-14.1%
22	COc1cc2[nH]c(-c3ccc(C)cc3)cc(=O)c2cc1OC	?	-29.2%
23	CCCOc1cccc(NC(=O)c2c(-c3ccccc3)noc2C)c1	-16.4%	-17.7%
24	Cc1cc(C)cc(NC(=O)Cn2nc(N3CCN(c4ccccc4)CC3)ccc2=O)c1	-21.8%	-17.3%
25	CN(C)S(=O)(=O)Oc1ccc(C(=O)Nc2cccc(Cl)c2)cc1	-8.2%	-8.8%
26	CC(=O)NCCC(=O)Nc1nc(-c2c[nH]c3ccccc23)cs1	?	-7.0%
27	COc1ccc(C(=O)NC(=S)Nc2cc3oc4ccccc4c3cc2OC)cc1	-5.5%	-6.8%
28	Cc1cccc(C(=O)n2nc(-c3cccnc3)nc2NCc2ccccc2)c1	-4.5%	-1.6%
29	CCc1ccc(NC(=O)Cc2c(C(=O)O)c(C)cn2C)cc1	3.0%	-2.4%
30	CCOC(=O)[C@H]1[C@H]2COc3ccc(C)cc3[C@@H]2N2C(=O)CN(Cc3ccc(Cl)cc3)C(=O)[C@@]12C	?	-26.2%
31	CC1(C)CC(=O)C(C(C2=C(O)CC(C)(C)CC2=O)c2ccc([N+](=O)[O-])cc2)C(=O)C1 (centres undefined)	-18.9%	-15.3%
32	Cc1ccc(Cl)cc1NC(=O)COC(=O)C1CCCCC1	-7.6%	-23.2%
33	O=C1/C(=C/c2cccc([N+](=O)[O-])c2)Oc2cc(O)ccc21	-16.0%	-7.7%
34	Cc1cc(C)c(S(=O)(=O)Nc2ccc(N(C)C)cc2)c(C)c1-n1cnnn1	?	0.4%
35	CC(C)(C)C(=O)CSc1nc2ccsc2c(=O)n1Cc1ccccc1F	-20.0%	-4.8%
36	CSc1nnc(-c2ccncc2)n1/N=C/c1cn(-c2ccccc2)nc1-c1ccc(Cl)cc1	-3.1%	-11.7%
37	COc1ccc(C2/C=C\CN(S(=O)(=O)c3ccc4ccccc4c3)CC(=O)N2Cc2ccc(F)cc2)cc1 (centres undefined)	-27.3%	-4.7%
38	Cc1ccc(CNC(=O)CCN2C(=O)C(C)Oc3ccc(C)cc32)cc1 (centres undefined)	-2.9%	-8.4%
39	CN(C)c1ccc(/C=C/c2c3ccccc3nc3ccccc23)cc1	-11.5%	11.5%
40	Cc1nc(Oc2cccc(Cl)c2)c2oc3ccccc3c2n1	-8.8%	-12.6%
41	CCCC(O)(CCC)C(=O)NNc1ccc(C)cc1	-13.3%	5.2%
42	CC1(c2ccc3noc(-c4ccc(F)cc4)c3c2)OCCO1	-3.5%	-22.6%
43	O=C(c1ccc2c(c1)N(Cc1ccccc1)C(=O)c1ccccc1S2(=O)=O)N1CCN(Cc2ccccc2)CC1	-22.2%	-18.2%
44	Cc1oc(-c2ccccc2F)nc1CS(=O)(=O)CC(=O)NCCN(C)C1CCCCC1	9.8%	-8.8%
45	COc1ccc(CCNCc2c(C(=O)O)c(C)n(Cc3cccc(Cl)c3)c2C)c(OC)c1OC	-5.8%	1.2%
46	O=C(CSc1nc2c([nH]c3ccccc32)c(=O)n1-c1ccccc1)NCC1CCCO1 (centres undefined)	-12.9%	-6.2%
47	COc1ccccc1N1C(=O)C(=O)N(C)C1=O	-20.3%	-12.7%
48	Cc1cc(=O)[nH]c(NCc2ccccc2)n1	-5.6%	-0.4%
49	CC(C)COc1ccc(Cc2cnc(N)nc2N)cc1	-6.6%	?
50	C=CCn1c(SCC(N)=O)nc(C)cc1=O	i	-10.1%
51	COc1ccc(C)cc1S(=O)(=O)N1CCCC(C(=O)NCc2ccccn2)C1 (centres undefined)	-13.2%	-6.6%
52	Cc1c(CCC(=O)NCCc2ccccc2F)c(=O)oc2cc(O)ccc12	-13.5%	-7.9%
53	Cc1cccc(/C(N)=N/OC(=O)c2ccoc2C)c1	0.8%	-4.7%
54	CN(C)c1ccc(/C=C/c2ncnc3ccccc23)cc1	73.1%[activator]	i
55	NC(=O)c1ncn([C@@H]2O[C@H](CNCc3cnc(N4CCOCC4)nc3)[C@@H](O)[C@H]2O)n1	i	-9.1%
56	CN(CCOc1ccc(Cl)cc1)C(=O)c1cccc(S(=O)(=O)N2CCN(c3ccc(F)cc3)CC2)c1	?	?
57	COc1ccc(NS(=O)(=O)c2ccc(F)cc2F)cn1	i	-8.3%
58	C/C(=N\NC(=O)c1cc(C)oc1C)c1ccc(N2CCOCC2)cc1	-3.8%	-0.3%
59	Cc1noc(C)c1COc1ccccc1C(=O)N(C)Cc1ccc(F)cc1	-23.1%	-12.3%
60	COc1ccccc1C(C(=O)c1ccccc1)c1ccc2ccccc2c1 (centres undefined)	?	-2.6%
61	CCN1CCN(S(=O)(=O)c2cnc(Cl)c(Br)c2)CC1	i	-15.3%
62	CCNC(=O)c1c(NC(=O)Cc2coc3cc(C)cc(C)c23)sc2c1CCCC2	-16.6%	-6.9%
63	COc1ccc(-c2nn(C)c3sc(C(=O)N4CCOCC4)cc23)cc1OC	-12.7%	7.9%
64	COc1ccc(Cl)cc1S(=O)(=O)N1CCN=C1C	-9.0%	-10.7%
65	O=C(COC(=O)C1CCCCC1)NCCc1ccccc1	-9.1%	-10.5%
66	Cc1ccc2oc(=O)n(CCOc3ccccc3)c2c1	i	-11.1%
67	CN1C(=O)/C(=C\c2cc(N=Nc3ccccc3)ccc2O)SC1=S	54.5%[activator]	17.5%
68	Cc1ccc(CNC(=O)C2CC(=O)N(C3CCCC3)C2)cc1 (centres undefined)	-15.4%	-9.6%
69	CCc1nnc(NC(=O)c2ccc(S(=O)(=O)N(CC)CC)cc2)s1	-11.2%	-4.7%
70	CCOc1ccccc1NC(=O)C(OC(=O)c1ccccc1)c1ccccc1 (centres undefined)	i	-12.9%
71	CCCCn1c(N)c(N(CC(C)C)C(=O)CSc2ccccc2C)c(=O)[nH]c1=O	i	-10.9%
72	COC(=O)[C@@]1(Cc2ccc(F)cc2)[C@H]2c3cc(C(=O)N4CCCC4)n(Cc4ccc(S(C)(=O)=O)cc4)c3C[C@H]2CN1C(=O)c1ccccc1	i	-8.7%
73	S=C(N/N=C/c1ccco1)NC1CC2CCC1C2 (centres undefined)	-14.3%	-6.9%
74	CCOC(=O)Cn1c(=O)oc2cc(S(=O)(=O)NCCc3ccc(C)cc3)ccc21	-14.8%	0.3%
75	O=C(NCCc1ccccc1)C1CCC(Cn2c(=O)c3ccccc3n(Cc3cccnc3)c2=O)CC1 (centres undefined)	-6.9%	?
76	Cc1ccc(/C=N/NC(=O)c2cc(C)oc2C)o1	·	-4.6%
77	Cc1ccc(C(c2sc3nc(-c4ccco4)nn3c2O)N2CCCC2)cc1 (centres undefined)	-16.9%	-11.3%
78	NC(Cc1ccc(F)cc1)c1csc(Nc2cc(NCc3ccco3)ncn2)n1 (centres undefined)	?	?
79	COc1ccc(/C=N/NC(=O)CN(C)S(=O)(=O)c2ccc(NC(C)=O)cc2)cc1	-5.3%	0.5%
80	CN1C(=O)C(c2nnc(Nc3cccc4ccccc34)s2)C2CC1(C)Oc1ccccc12 (centres undefined)	-17.4%	-21.0%

Entries of single compounds as entered above. Order of values: Vaccinia mCherry | Vaccinia Venus
Shown for `Cc1ccc2oc(=O)n(CCOc3ccccc3)c2c1` → i | -11.1%
Shown for `CN1C(=O)/C(=C\c2cc(N=Nc3ccccc3)ccc2O)SC1=S` → 54.5%[activator] | 17.5%

(next part)
entry	smiles	Vaccinia mCherry	Vaccinia Venus
81	Cc1ccc(N(C(=O)CNC(=O)c2ccco2)C(C(=O)NC2CCCC2)c2ccncc2)c(C)c1 (centres undefined)	i	-9.3%
82	CNCc1ccccc1	i	-15.4%
83	Cc1ccccc1NC(=O)c1c(NC(=O)c2ccncc2)sc2c1CCC(C(C)(C)C)C2 (centres undefined)	-13.6%	-13.9%
84	Cc1ccccc1OCc1nc2c3c(ncn2n1)-c1ccccc1CC31CCCC1	-14.3%	-0.7%
85	CCC(C)(C)n1nnnc1C(c1cc2ccc(C)cc2[nH]c1=O)N(Cc1cccnc1)Cc1ccco1 (centres undefined)	i	-24.0%
86	CCN(CC(=O)Nc1ccc(OC)cc1)C(=O)c1cc(S(=O)(=O)N(C)C)ccc1N1CCCC1	-15.0%	-9.7%
87	CCCC1NC(=O)NC(C)=C1C(=O)OCC (centres undefined)	-18.7%	-6.3%
88	Cc1cc(C)cc(NC(=O)COc2coc(CN3CCN(c4ccccc4)CC3)cc2=O)c1	-13.3%	-10.3%
89	CC1(C(=O)Nc2ccc3c(c2)OCO3)Cc2c(-c3cccc(C(N)=O)c3)ccnc2O1 (centres undefined)	?	?
90	O=c1[nH]c2c(s1)C=Nc1ccccc1N2	1.6%	12.8%
91	CNC(=O)C1CCC(Cn2c(=O)c3sccc3n(CC(=O)Nc3ccc(C)cc3C)c2=O)CC1 (centres undefined)	5.3%	-0.7%
92	Cc1ccc(S(=O)(=O)c2cn(C)c3cc(N4CCN(c5ccccc5)CC4)c(F)cc3c2=O)cc1	-16.0%	-20.7%
93	Cc1noc(NS(=O)(=O)c2ccc(NC(=O)CSc3nc4ccccc4s3)cc2)c1C	-14.1%	2.6%
94	N#Cc1ccc(CO/N=C/c2ccccc2)cc1	1.4%	-0.4%
95	O=[N+]([O-])c1cccc2c(N3CCCC3)ccnc12	?	7.08µM*
96	N#Cc1c(C#N)c(-c2ccccc2)n(-c2ccccc2)c1N	·	-26.4%
97	CCOC(=O)CCn1cc(F)c(=O)[nH]c1=O	i	-9.3%
98	COc1ccc(OCC(=O)NCc2n[nH]c(=O)c3ccccc23)cc1	-14.5%	-1.5%
99	CCN(CC)S(=O)(=O)c1ccc2c(c1)N(CC(=O)NCc1ccccc1)C(=O)C1CCCCN21 (centres undefined)	4.7%	-6.6%
100	Cc1cccc(COC[C@H](CC(C)C)N2CCN(C(=O)c3ccc(C(F)(F)F)cc3)CCC2=O)c1	i	1.3%
101	COc1ccccc1CN1C[C@@H]2C[C@@H](c3cccc(C)n3)N3CCC[C@@]23C1=O	-24.9%	3.8%
102	COc1ccc(/C=C(/CC(=O)NCc2ccc(Cl)cc2)c2nc3ccccc3s2)cc1	?	-14.5%
103	COC(=O)COc1ccc(C)cc1-n1nc2ccccc2n1	i	-14.2%
